Source: PubChem BioAssay (Broad Institute)
Ran importin: inhibitors of Ran–importin-beta complex formation, primary screen, biochemical, CFP-Ran/YFP-importin-beta FRET, RCC1, cell-free (AID 434961). CFP-Ran/YFP-importin-beta FRET, cell-free; active compounds read high. inhibition, %. 7,700 tested, 0.2% active;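 active means more than half of the replicate wells above 15% inhibition; inconclusive means exactly half above it; inactive means fewer than half above it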;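 further: 0% = DMSO wells and 100% inhibition = RanGDP control wells on each plate; stock of unstated strength diluted about 400-fold; mean of two wells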
Numbers without * were called inactive; ? = inconclusive. Not all compounds are listed. The share of hits here may be higher or lower than overall.

Ran importin | compound
-2.9 | CC(C)NC(=O)N(C)C[C@@H]1OCCCC[C@@H](C)Oc2ccc(NC(=O)Nc3ccc(F)cc3)cc2C(=O)N([C@H](C)CO)C[C@H]1C
-3.6 | C[C@H]1CN([C@@H](C)CO)C(=O)Cc2cc(N(C)C)ccc2O[C@H]1CN(C)C(=O)Nc1ccccc1
3.2 | C[C@H]1CN([C@@H](C)CO)C(=O)c2cc(NS(=O)(=O)c3cccs3)ccc2O[C@H]1CN(C)CC1CC1
-5.6 | C[C@H]1CN([C@@H](C)CO)C(=O)c2cc(NC(=O)Cc3ccccc3)ccc2O[C@H]1CN(C)C(=O)Nc1ccccc1
? | C[C@H](CO)N1C[C@H](C)[C@H](CN(C)S(=O)(=O)c2cn(C)cn2)Oc2ccc(NC(=O)Nc3ccc(F)cc3)cc2C1=O
1.5 | Cc1noc(C)c1S(=O)(=O)N(C)C[C@H]1Oc2c(NS(C)(=O)=O)cccc2C(=O)N([C@@H](C)CO)C[C@H]1C
2.4 | C[C@@H]1CN([C@@H](C)CO)C(=O)Cc2cc(NC(=O)Nc3ccc4c(c3)OCO4)ccc2O[C@@H]1CN(C)CC1CC1
7.2 | C[C@H](CO)N1C[C@H](C)[C@@H](CN(C)C(=O)Nc2cccc3ccccc23)Oc2ccc(NC(=O)CCN3CCOCC3)cc2C1=O
-4.4 | Cc1noc(C)c1NC(=O)N(C)C[C@H]1Oc2c(NS(C)(=O)=O)cccc2C(=O)N([C@H](C)CO)C[C@@H]1C
-4.4 | CNC[C@H]1Oc2ccc(NC(=O)Nc3ccc(F)cc3)cc2CC(=O)N([C@@H](C)CO)C[C@H]1C
-2.2 | C[C@@H]1CN([C@H](C)CO)C(=O)Cc2cc(NS(=O)(=O)c3ccccc3)ccc2O[C@@H]1CN(C)C(=O)NC1CCCCC1
1.3 | CNC[C@@H]1Oc2ccc(NS(=O)(=O)c3cccs3)cc2CC(=O)N([C@H](C)CO)C[C@H]1C
0.9 | C[C@@H]1CN([C@H](C)CO)C(=O)c2cc(NC(=O)CCCN(C)C)ccc2O[C@@H](C)CCCCO[C@@H]1CN(C)Cc1ccccc1
3.2 | C[C@H]1CN([C@@H](C)CO)C(=O)CCCn2cc(nn2)CO[C@H]1CN(C)C(=O)Nc1cccc2ccccc12
-2.5 | C[C@H](CO)N1C[C@H](C)[C@H](CN(C)S(=O)(=O)c2cccs2)Oc2ncccc2C1=O
3.8 | C[C@H](CO)N1C[C@H](C)[C@@H](CN(C)C(=O)Cc2ccccc2)OCCCC[C@H](C)Oc2ccc(NC(=O)c3ccncc3)cc2C1=O
-3.3 | C[C@H]1CN([C@@H](C)CO)C(=O)c2cccc(NC(=O)c3ccncc3)c2O[C@H]1CN(C)Cc1ccc2c(c1)OCO2
2.5 | C[C@H]1CCCCO[C@H](CN(C)S(=O)(=O)c2cccs2)[C@@H](C)CN([C@@H](C)CO)C(=O)c2cc(NS(=O)(=O)c3cccs3)ccc2O1
? | C[C@@H]1CN([C@@H](C)CO)C(=O)c2cccc(NC(=O)c3ccncc3)c2O[C@@H]1CN(C)Cc1ccc(Oc2ccccc2)cc1
-2.7 | C[C@@H]1CCCCO[C@@H](CN(C)C(=O)C2CCCCC2)[C@H](C)CN([C@@H](C)CO)C(=O)c2cc(N(C)C)ccc2O1
1.9 | C[C@@H]1CCCCO[C@@H](CN(C)S(=O)(=O)c2cccs2)[C@@H](C)CN([C@H](C)CO)C(=O)c2cc(N(C)C)ccc2O1
-1.7 | C[C@H](CO)N1C[C@H](C)[C@@H](CN(C)S(=O)(=O)c2cn(C)cn2)OCCCC[C@H](C)Oc2ccc(NS(=O)(=O)c3cn(C)cn3)cc2C1=O
1.7 | COc1ccc(NC(=O)Nc2cccc3c2O[C@H](CN(C)S(=O)(=O)c2cccs2)[C@H](C)CN([C@H](C)CO)C3=O)cc1
-4.5 | COc1ccc(S(=O)(=O)N(C)C[C@H]2Oc3ccc(NC(=O)Cc4ccccc4)cc3CC(=O)N([C@H](C)CO)C[C@@H]2C)cc1
1.8 | COc1ccc(NC(=O)Nc2ccc3c(c2)C(=O)N([C@H](C)CO)C[C@H](C)[C@@H](CN(C)S(C)(=O)=O)O3)cc1

3 structures from above, sorted by length of the SMILES, descending:
Ran importin | compound
2.5 | C[C@H]1CCCCO[C@H](CN(C)S(=O)(=O)c2cccs2)[C@@H](C)CN([C@@H](C)CO)C(=O)c2cc(NS(=O)(=O)c3cccs3)ccc2O1
2.4 | C[C@@H]1CN([C@@H](C)CO)C(=O)Cc2cc(NC(=O)Nc3ccc4c(c3)OCO4)ccc2O[C@@H]1CN(C)CC1CC1
-4.4 | CNC[C@H]1Oc2ccc(NC(=O)Nc3ccc(F)cc3)cc2CC(=O)N([C@@H](C)CO)C[C@H]1C

The listing picks up, starting 4 compounds before the break.
Ran importin | compound
-1.7 | C[C@H](CO)N1C[C@H](C)[C@@H](CN(C)S(=O)(=O)c2cn(C)cn2)OCCCC[C@H](C)Oc2ccc(NS(=O)(=O)c3cn(C)cn3)cc2C1=O
1.7 | COc1ccc(NC(=O)Nc2cccc3c2O[C@H](CN(C)S(=O)(=O)c2cccs2)[C@H](C)CN([C@H](C)CO)C3=O)cc1
-4.5 | COc1ccc(S(=O)(=O)N(C)C[C@H]2Oc3ccc(NC(=O)Cc4ccccc4)cc3CC(=O)N([C@H](C)CO)C[C@@H]2C)cc1
1.8 | COc1ccc(NC(=O)Nc2ccc3c(c2)C(=O)N([C@H](C)CO)C[C@H](C)[C@@H](CN(C)S(C)(=O)=O)O3)cc1
-2.4 | Cc1noc(C)c1S(=O)(=O)Nc1ccc2c(c1)C(=O)N([C@@H](C)CO)C[C@H](C)[C@@H](CN(C)C(=O)Nc1ccccc1)O2
5.2 | C[C@H]1CN([C@@H](C)CO)C(=O)c2cccc(NC(=O)c3cnccn3)c2O[C@H]1CN(C)C(=O)Nc1ccccc1
-2.3 | C[C@@H]1CCCCO[C@H](CN(C)CC2CC2)[C@H](C)CN([C@@H](C)CO)C(=O)c2cc(NC(=O)Nc3ccccc3)ccc2O1
1.8 | Cc1noc(C)c1NC(=O)N(C)C[C@H]1OCCCC[C@H](C)Oc2ccc(NC(=O)c3ccncc3)cc2C(=O)N([C@@H](C)CO)C[C@@H]1C
2.3 | C[C@@H]1CN([C@H](C)CO)C(=O)Cc2cc(NC(=O)C3CC3)ccc2O[C@@H]1CN(C)S(=O)(=O)c1cn(C)cn1
2.7 | COc1ccc(S(=O)(=O)N(C)C[C@H]2Oc3c(NC(=O)NC4CCCCC4)cccc3C(=O)N([C@H](C)CO)C[C@@H]2C)cc1
-4.9 | C[C@@H]1CN([C@@H](C)CO)C(=O)c2cc(NC(=O)Nc3ccc(F)cc3)ccc2O[C@@H](C)CCCCO[C@H]1CN(C)Cc1ccc(C(=O)O)cc1
-1.7 | COc1ccc(S(=O)(=O)N(C)C[C@H]2Oc3c(NS(C)(=O)=O)cccc3C(=O)N([C@@H](C)CO)C[C@H]2C)cc1
-3.5 | COC(=O)N(C)C[C@H]1OCc2cnnn2CCCC(=O)N([C@@H](C)CO)C[C@H]1C
-0.3 | COc1ccc(C#Cc2cnc3c(c2)C(=O)N([C@H](C)CO)C[C@H](C)[C@H](CN(C)C(=O)Nc2c(C)noc2C)O3)cc1OC
3.8 | C[C@@H]1CN([C@H](C)CO)C(=O)c2cccc(NC(=O)c3cnccn3)c2O[C@@H]1CN(C)C(=O)NC1CCCCC1
6.5 | C[C@@H]1CN([C@H](C)CO)C(=O)c2cc(NS(C)(=O)=O)ccc2O[C@@H]1CN(C)C(=O)Nc1ccc(F)cc1
-3.4 | C[C@H](CO)N1C[C@H](C)[C@H](CN(C)C(=O)NC2CCCCC2)Oc2c(NC(=O)Nc3ccccc3)cccc2C1=O
1.3 | C[C@H](CO)N1C[C@H](C)[C@@H](CN(C)S(=O)(=O)c2cn(C)cn2)OCc2cn(nn2)CCCC1=O
-3.9 | C[C@@H]1CN([C@H](C)CO)C(=O)Cc2cc(NC(=O)Cc3ccccc3)ccc2O[C@@H]1CN(C)C(=O)Nc1ccc2c(c1)OCO2
? | C[C@H](CO)N1C[C@H](C)[C@@H](CN(C)S(=O)(=O)c2cccs2)Oc2c(NC(=O)c3nc4ccccc4s3)cccc2C1=O
3.6 | C[C@H]1CN([C@@H](C)CO)C(=O)c2cccc(NS(=O)(=O)c3cn(C)cn3)c2O[C@@H]1CN(C)C(=O)NC1CCCCC1
4.2 | C[C@H]1CN([C@@H](C)CO)C(=O)c2cccc(NC(=O)NC3CCCCC3)c2O[C@H]1CN(C)C(=O)Nc1ccc(C(F)(F)F)cc1
-0.3 | Cc1cc(C(=O)Nc2cccc3c2O[C@H](CN(C)C(=O)Nc2c(C)noc2C)[C@@H](C)CN([C@H](C)CO)C3=O)n(C)n1
4.4 | C[C@@H]1CN([C@H](C)CO)C(=O)c2cccc(N(C)C)c2O[C@H]1CN(C)Cc1ccc(Cl)c(Cl)c1
-1.5 | C[C@@H]1CN([C@H](C)CO)C(=O)c2cc(NC(=O)Nc3ccc(F)cc3)ccc2O[C@@H]1CN(C)C(=O)Nc1ccc(F)cc1
-8.5 | CC(C)NC(=O)Nc1ccc2c(c1)C(=O)N([C@H](C)CO)C[C@H](C)[C@@H](CN(C)S(=O)(=O)c1ccccc1)OCCCC[C@@H](C)O2
-0.1 | C[C@H]1CN([C@@H](C)CO)C(=O)Cc2cc(NC(=O)CCC(F)(F)F)ccc2O[C@@H]1CN(C)C(=O)Nc1ccccc1
0.3 | C[C@@H]1CN([C@@H](C)CO)C(=O)c2cc(N(C)C)ccc2O[C@H]1CN(C)CC1CCCCC1
-2.6 | CNC[C@@H]1OCCCC[C@@H](C)Oc2ccc(NC(=O)Nc3ccc(C(F)(F)F)cc3)cc2C(=O)N([C@@H](C)CO)C[C@@H]1C
-5.5 | C[C@H](CO)N1C[C@H](C)[C@H](CN(C)C)Oc2ncc(-c3cccc(C(F)(F)F)c3)cc2C1=O
? | C[C@H]1CN([C@@H](C)CO)C(=O)CCCn2nncc2CO[C@H]1CN(C)C
4.4 | C[C@H](CO)N1C[C@H](C)[C@H](CN(C)S(=O)(=O)c2ccccc2)Oc2ncc(C#CC(C)(C)O)cc2C1=O
-2.0 | C[C@@H]1CN([C@H](C)CO)C(=O)Cc2cc(NS(C)(=O)=O)ccc2O[C@H]1CN(C)C(=O)NC1CCCCC1
0.7 | C[C@H]1CCCCO[C@@H](CN(C)C(=O)c2ccncc2)[C@@H](C)CN([C@@H](C)CO)C(=O)c2cc(NS(=O)(=O)c3ccccc3)ccc2O1
1.1 | CNC[C@H]1Oc2c(NS(=O)(=O)c3c(C)noc3C)cccc2C(=O)N([C@H](C)CO)C[C@H]1C
1.4 | Cc1noc(C)c1S(=O)(=O)Nc1cccc2c1O[C@@H](CN(C)C(=O)Nc1cccc3ccccc13)[C@@H](C)CN([C@H](C)CO)C2=O
1.3 | C[C@H](CO)N1C[C@H](C)[C@H](CN(C)C(=O)Nc2ccc3c(c2)OCO3)Oc2ccc(NS(=O)(=O)c3cccs3)cc2C1=O
-0.4 | COc1ccc(S(=O)(=O)N(C)C[C@H]2Oc3c(NC(=O)Nc4c(C)noc4C)cccc3C(=O)N([C@H](C)CO)C[C@@H]2C)cc1
-0.9 | C[C@H](CO)N1C[C@H](C)[C@@H](CN(C)C(=O)c2ccccc2)OCCCC[C@H](C)Oc2ccc(NS(=O)(=O)c3ccccc3)cc2C1=O
-1.3 | C[C@H]1CN([C@@H](C)CO)C(=O)c2cccc(N(C)C)c2O[C@H]1CN(C)C(=O)NC1CCCCC1
-4.6 | C[C@@H]1CN([C@@H](C)CO)C(=O)CCCn2nncc2CO[C@H]1CN(C)Cc1ccc(Oc2ccccc2)cc1
1.6 | COc1ccc(S(=O)(=O)Nc2cccc3c2O[C@@H](CN(C)S(=O)(=O)c2cn(C)cn2)[C@H](C)CN([C@H](C)CO)C3=O)cc1
5.3 | CNC[C@@H]1Oc2ncc(C#Cc3ccccc3)cc2C(=O)N([C@H](C)CO)C[C@@H]1C
0.0 | CCCN(C)C[C@@H]1Oc2ncc(-c3ccccc3)cc2C(=O)N([C@H](C)CO)C[C@@H]1C
9.4 | CC(C)NC(=O)N(C)C[C@@H]1OCCCC[C@@H](C)Oc2ccc(NS(C)(=O)=O)cc2C(=O)N([C@H](C)CO)C[C@H]1C
-2.6 | C[C@@H]1CN([C@H](C)CO)C(=O)c2cccc(NS(=O)(=O)c3cccs3)c2O[C@@H]1CN(C)C(=O)NC1CCCCC1
1.4 | Cc1noc(C)c1NC(=O)N(C)C[C@@H]1OCCCC[C@@H](C)Oc2ccc(NC(=O)c3ccncc3)cc2C(=O)N([C@H](C)CO)C[C@@H]1C
-6.8 | CNC[C@H]1OCCCC[C@@H](C)Oc2ccc(NS(=O)(=O)c3ccccc3)cc2C(=O)N([C@@H](C)CO)C[C@H]1C
? | COc1ccc(S(=O)(=O)N(C)C[C@H]2Oc3c(NC(=O)c4ccncc4)cccc3C(=O)N([C@H](C)CO)C[C@H]2C)cc1
-0.8 | COc1ccc(S(=O)(=O)N(C)C[C@H]2Oc3ccc(NS(=O)(=O)c4ccc(Cl)cc4)cc3C(=O)N([C@@H](C)CO)C[C@H]2C)cc1
-0.8 | C[C@H]1CN([C@@H](C)CO)C(=O)c2cccc(NS(=O)(=O)c3ccc(Cl)cc3)c2O[C@H]1CN(C)Cc1ccncc1
1.3 | COc1ccc(CN(C)C[C@@H]2Oc3ccc(NC(=O)Cn4cnnn4)cc3CC(=O)N([C@H](C)CO)C[C@H]2C)cc1
-2.9 | COc1ccc(S(=O)(=O)N(C)C[C@H]2Oc3ccc(NC(=O)Cn4cnnn4)cc3C(=O)N([C@@H](C)CO)C[C@H]2C)cc1
0.8 | Cc1noc(C)c1NC(=O)N(C)C[C@@H]1Oc2ccc(NC(=O)NC(C)C)cc2CC(=O)N([C@H](C)CO)C[C@H]1C
3.1 | COc1ccc(NC(=O)Nc2ccc3c(c2)C(=O)N([C@H](C)CO)C[C@H](C)[C@H](CN(C)Cc2ccc(C(=O)O)cc2)O3)cc1
